Source: PubChem
RVFV N-RNA inh: inhibitors of RVFV nucleoprotein–RNA binding, primary screen, biochemical, fluorescence polarization | RVFV N-RNA binding; active compounds read low | AID 651828, 2012 | 20,000 tested, 0.1% active | % bound, % (concentration not given with the values);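 active = between 0 and 58% in either replicate with normal brightness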;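 also: 100 nL library stock added to about 12 µL; 100% = protein and probe without compound and 0% = probe alone; numbers are from one replicate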
Target sequence (P21700 whole entry, looked up): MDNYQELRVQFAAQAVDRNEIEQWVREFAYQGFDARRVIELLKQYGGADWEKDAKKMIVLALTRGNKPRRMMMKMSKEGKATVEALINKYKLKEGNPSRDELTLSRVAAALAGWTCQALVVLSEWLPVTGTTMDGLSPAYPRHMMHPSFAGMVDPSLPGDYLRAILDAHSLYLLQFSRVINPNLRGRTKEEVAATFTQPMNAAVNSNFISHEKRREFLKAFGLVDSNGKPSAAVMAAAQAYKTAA
The depositor's hits bear a star; & = joins results of further samples.

SMILES	RVFV N-RNA inh
O=C1CC(c2ccccc2)CC(O)=C1C=NCc1ccccn1 (stereo not drawn)	86
COc1cc(/C=N/NC(=S)NCc2ccco2)ccc1O	100
O=C(O)c1cc(=O)cc(C(=O)O)[nH]1	97
CCOC(=O)N1CCc2c(sc(NC(=O)c3ccc(S(=O)(=O)N4CCOCC4)cc3)c2C(=O)N2CCOCC2)C1	98
Cc1cc(C)c2c(C(C)(C)C)nn(-c3ccc(C(=O)O)cc3)c2n1	107
Brc1cccc(-c2n[nH]c(-c3ccccc3)n2)c1	94
Cc1cc(C)n(C2=NCCN2C=C(C#N)C#N)n1	99
O=C(c1cncc(NS(=O)(=O)c2ccc(Cl)cc2)c1)N1CCc2ccccc21	102
COc1cc(C(O)CO)ccc1O (stereo not drawn)	100
CCn1nc(C)c(Br)c1-c1nc(CS(=O)(=O)c2ccc(F)cc2)no1	95
CC(C)(C)N1CC(COc2ccccc2)OC1=O (stereo not drawn)	95
O=C1c2ccccc2C(=O)N1CCOc1ccccc1	100
O=C(CCn1c(=O)oc2ccccc21)NCCCN1CCCC1=O	98
CCCCC(=O)c1ccc(OC(C)C)cc1	102
COc1cccc(N=Nc2c(N)[nH]n(-c3ccccc3)c2=O)c1	93
c1ccc(-n2ncc3c(N4CCC5(CC4)OCCO5)ncnc32)cc1	93
Cc1nn(C(=O)c2ccccc2)c(C)c1CN1C(=O)c2ccccc2C1=O	96
C=CCN(Cc1ccc(OC)c(OC)c1)C(=O)NC1CCCCC1	95
Cn1c(=O)c2c(O)c(C=NCc3cccnc3)c(=O)n(C)c2n(C)c1=O	91
O=C(O)c1cc(S(=O)(=O)N2CCCC2)ccc1O	99
CC(=O)O[C@]1(C(C)=O)CC[C@H]2[C@@H]3C=C(C)C4=CC(=O)CC[C@]4(C)[C@H]3CC[C@@]21C	88&98
CCn1c(C)cc(/C=C2/SC(=S)NC2=O)c1C	97
CCOC(=O)NC(=S)Nc1cc(C)cc(C)n1	89
CC(=O)Nc1ccc(CN(CCN(C)C)Cc2ccccc2)cc1	93
CN(CC(=O)C(C#N)c1ccccc1)C1CCCCC1 (stereo not drawn)	109
Carrying on:
SMILES	RVFV N-RNA inh
Cc1ccc(OCCNCCN)c(Br)c1	96
O=C(NNc1ccccc1)NNc1ccccc1	85
CNCCc1ccc(O)c(O)c1	82
O=C(CSc1c[nH]c2ccccc12)NC1CCCC1	99
O=C(CN1CCN(c2nc3cc(Cl)ccc3s2)CC1)c1ccccc1	93
CSC1=N/C(=C\c2ccc3c(c2)OCO3)C(=O)S1	109
COC(=O)CN1C(=O)S/C(=C\c2ccccc2)C1=O	91
CC(=O)Nc1ccc(S(=O)(=O)N2c3ccccc3NC(=O)CC2C)c(Cl)c1 (stereo not drawn)	102
COCCNc1oc(COc2ccc(Br)cc2)nc1C#N	96
C=CCN(c1ccccc1C(=O)NCC(=O)O)S(=O)(=O)c1ccccc1	84
NC(=O)C1=CN(C(=O)Nc2ccccc2)CCC1C(F)(F)F (stereo not drawn)	96
O=C(NC1CCCc2ccccc21)c1ccc2c(c1)OCO2 (stereo not drawn)	99
Oc1c(C(c2cccs2)N2CCN(c3ccccc3)CC2)sc2ncnn12 (stereo not drawn)	102
Cc1ccc(O)c(N/C=C/C(=O)C(C)(C)C)c1	110
COc1ccc(OCC(=O)N(C)C)cc1	89
CC1CC(NS(=O)(=O)c2cc3c4c(c2)CCN4C(=O)CC3)CC(C)(C)C1 (stereo not drawn)	98
S=c1nc(-c2ccccc2)[nH][nH]1	104
CN1C(=O)CN=C(c2ccccc2)c2cc([N+](=O)[O-])ccc21	100
CC(C)(C)C(=O)NC(=S)Nc1ccccc1	101
O=C(NCc1ccc2c(c1)CCO2)C1CCC1	91
O=C(NCc1cccs1)c1csc(C2COc3ccccc3O2)n1 (stereo not drawn)	87
Cc1cccc(NC(N)=S)c1	91
O=C1/C(=C/c2cccnc2)SC(=S)N1N1CCOCC1	100
CCN(CC)C(=O)N(CC)C1CCCCC1	100
c1ccc(-c2cnc[nH]2)cc1	100

As a short view, some entries already given.
SMILES	RVFV N-RNA inh
Cc1cc(C)c2c(C(C)(C)C)nn(-c3ccc(C(=O)O)cc3)c2n1	107
Brc1cccc(-c2n[nH]c(-c3ccccc3)n2)c1	94
Cc1cc(C)n(C2=NCCN2C=C(C#N)C#N)n1	99
O=C(c1cncc(NS(=O)(=O)c2ccc(Cl)cc2)c1)N1CCc2ccccc21	102
COc1cc(C(O)CO)ccc1O (stereo not drawn)	100
CCn1nc(C)c(Br)c1-c1nc(CS(=O)(=O)c2ccc(F)cc2)no1	95
CC(C)(C)N1CC(COc2ccccc2)OC1=O (stereo not drawn)	95
O=C1c2ccccc2C(=O)N1CCOc1ccccc1	100
O=C(CCn1c(=O)oc2ccccc21)NCCCN1CCCC1=O	98
CCCCC(=O)c1ccc(OC(C)C)cc1	102
COc1cccc(N=Nc2c(N)[nH]n(-c3ccccc3)c2=O)c1	93
c1ccc(-n2ncc3c(N4CCC5(CC4)OCCO5)ncnc32)cc1	93
Cc1nn(C(=O)c2ccccc2)c(C)c1CN1C(=O)c2ccccc2C1=O	96
C=CCN(Cc1ccc(OC)c(OC)c1)C(=O)NC1CCCCC1	95

New compounds follow:
SMILES	RVFV N-RNA inh
CN1CCN(C(CC(=O)Nc2ccc(Oc3ccccc3)cc2)C(=O)O)CC1 (stereo not drawn)	95
C/C(CCC1CC(C)OC1=O)=N\NC(N)=O (stereo not drawn)	92
O/N=C/c1cn(CC(O)Cn2cnc3ccccc32)c2ccccc12 (stereo not drawn)	101
O=C(c1ccccc1)N1CCN(c2ccc(NCC3CCCO3)nn2)CC1 (stereo not drawn)	88
O=C1c2ccccc2C(=O)C1C(c1ccco1)C1C(=O)c2ccccc2C1=O	92
COC(=O)C1C(=O)C=C(N2CCOCC2)CC1(C)C (stereo not drawn)	107
NC(=O)c1ccc(N2CCCCC2)c(N)c1	91
C#CCn1c(-c2nonc2N)nc2ccccc21	79
Cc1ccc(NC2=CC(=O)c3sc(C)nc3C2=O)cc1	102
CSc1nc2c(c(=O)n1Cc1ccccc1)SC(C)C2 (stereo not drawn)	102
O=C(Nc1nnc(-c2ccccc2)o1)C(c1ccccc1)c1ccccc1	111
C=CCOc1ccccc1/C=C1/SC(N2CCN(C)CC2)=NC1=O	96
O=C(NCN1CCOCC1)c1cccnc1	86
O=C1OCCN/C1=C/C(=O)c1ccc(Cl)cc1	96
COc1ccc(-c2csc3nc[nH]c(=O)c23)cc1OC	95
CC(C)NC(=O)/C=C/c1ccco1	100
CC(=O)N=C(N=Nc1c(O)[nH]c2ccccc12)NC(C)=O	93
Cn1nc(-c2ccc(C(=O)N3CCN(CCO)CC3)cc2)c2ccccc2c1=O	108
Cc1ccc(NC(=O)CC2NCCN(Cc3ccccc3)C2=O)cc1 (stereo not drawn)	98
COc1ccc(C(C)=CC(=O)C(C)(C)C)cc1	97
CCCc1c(NC(=O)Nc2ccc(F)cc2)cnn1-c1ccccc1	99
NS(=O)(=O)c1ccc(NC(=O)CS)cc1	101
N[C@H](C(=O)O)[C@H]1C[C@@H]1C(=O)O	98
CCOC(=O)c1sc2ncn(/N=C/c3cccnc3)c(=O)c2c1C	100
COC(=O)C(O)(CC(=O)Nc1ccc(OC(F)(F)F)cc1)C(F)(F)F (stereo not drawn)	92

Some of these compounds in order of SMILES length, lowest first:
SMILES	RVFV N-RNA inh
O=C(NCN1CCOCC1)c1cccnc1	86
NS(=O)(=O)c1ccc(NC(=O)CS)cc1	101
C/C(CCC1CC(C)OC1=O)=N\NC(N)=O (stereo not drawn)	92
CSc1nc2c(c(=O)n1Cc1ccccc1)SC(C)C2 (stereo not drawn)	102
CCCc1c(NC(=O)Nc2ccc(F)cc2)cnn1-c1ccccc1	99
O/N=C/c1cn(CC(O)Cn2cnc3ccccc32)c2ccccc12 (stereo not drawn)	101
CN1CCN(C(CC(=O)Nc2ccc(Oc3ccccc3)cc2)C(=O)O)CC1 (stereo not drawn)	95

Next part.
SMILES	RVFV N-RNA inh
COc1ccc(NC(=O)c2cccnc2N2CCCC2)cc1	91
OC(CNCCNc1nccc(C(F)(F)F)n1)c1ccccc1 (stereo not drawn)	107
COc1ccc(C(=O)Nc2ccccc2)cc1S(=O)(=O)N1CCC(C)CC1	100
CCCCN=Cc1c(O)n(-c2ccc(Cl)cc2)c(=O)[nH]c1=O	85
CCOC(=O)c1sc2nccc(Nc3ccccc3)c2c1N	95
N#CSC(C#N)Cc1ccccc1 (stereo not drawn)	84
COC(=O)c1nnn(-c2nonc2N)c1CSC#N	91
Cc1ccccc1NCC(=O)N/N=C\c1ccccc1	102
CN1CCN(C/C=C/c2ccccc2)CC1	100
CC1=C(/C=C/C(C)=C/C=C/C(C)=C/C(=O)Nc2ccc(O)cc2)C(C)(C)CCC1	99&97
NC(/N=C/c1ccccc1O)=N\S(=O)(=O)c1ccc(N=Cc2ccccc2O)cc1	101
CC(=O)NCCc1c[nH]c2ccc(O)cc12	93
Cc1ccc(S(=O)(=O)N2CCN(Cn3cnc4ccccc43)CC2)cc1C	95
CCN(CC)CC#CCOC(=O)C(O)(c1ccccc1)C1CCCCC1 (stereo not drawn)	96&92
O=C1CC(NNc2nc3ccccc3s2)C(=O)N1c1ccccc1 (stereo not drawn)	91
OC1CCCN(C(=S)NCc2ccccc2)C1 (stereo not drawn)	97
O=C(CSC(=S)N1CCOCC1)c1ccccc1	98
CNS(=O)(=O)c1ccc2[nH]c(=O)cc(C)c2c1	100
Cc1ccccc1NCc1nc[nH]c1C	101
COc1ccccc1NC(=O)Nc1nc(CC(=O)NCc2cccs2)cs1	95
O=C1C2C3CC4C5C3C1C5C(F)(F)C42 (stereo not drawn)	84
O=C(CSc1ncnc2nc[nH]c12)N1CCOCC1	93
Clc1ccc(SCCCCn2cncn2)cc1	101
CCCNC(=O)c1ccccc1NC(=O)c1ccccc1NS(C)(=O)=O	92
Nc1nnc(SCC(=O)Nc2ccccc2N2CCOCC2)s1	111
Next entries:
SMILES	RVFV N-RNA inh
CC(Nc1ccc(Br)cn1)c1cc(Cl)ccc1O (stereo not drawn)	92
COc1ccc(NC(=O)CSCc2ccc(C)cc2)cc1	96
CC1=C(C(=O)Nc2ccc(C)cc2)C(c2ccc(C)o2)C2=C(CC(C)(C)CC2=O)N1 (stereo not drawn)	100
COC(=O)C1=C(C)Nc2ncnn2C1/C=C/c1ccccc1 (stereo not drawn)	94
COC(=O)c1cn(Cc2cc(OC)ccc2OC)cc(F)c1=O	95
CC(NC(=O)C1CCCC1)c1ccccc1 (stereo not drawn)	98
Cc1ccc(-c2nc3ccccc3o2)cc1NC(=O)c1ccc2c(c1)OCO2	95
COc1ccc(C(=O)c2c(C(F)(F)F)oc3c2C(=O)c2ccccc2C3=O)cc1OC	95
Cc1cc(C)nc(N/C=C(\C#N)C(=O)c2ccoc2C)n1	96
CC(N)Cc1c[nH]c2ccc(OCc3cccs3)cc12 (stereo not drawn)	93
O=C1[C@H]2CSC3(C(=O)c4ccccc4C3=O)N2C(=O)[C@H]2CSC3(C(=O)c4ccccc4C3=O)N12	97
Cn1cc(S(=O)(=O)NCC2CCCO2)c(=O)n(C)c1=O (stereo not drawn)	93
N#Cc1cccc2c1[nH]c1ccc(Cl)cc12	99
O=C1NCCN1CCNS(=O)(=O)c1ccc(N2C(=O)CCC2=O)cc1	108
O=C1CC2(CCN(C(=O)Cc3ccccc3)CC2)Oc2ccccc21	106
CCN=C1SC(CC(=O)Nc2sc(C)c(C)c2C(=O)OCC)C(=O)N1CC (stereo not drawn)	100
Cc1cccc(-c2noc(CN(C(=O)Cc3ccccc3)C(C)C)n2)c1	86
Cn1c(Cc2noc(-c3ccccc3)n2)nc2ccccc21	96
CS(=O)(=O)c1[nH]nc(-c2ccccc2Cl)c1C#N	97
O=C(O)c1ccccc1Nc1cccc(C(F)(F)F)c1	95
O=C(O)[C@@H]1CCCCN1C(=O)OCC1c2ccccc2-c2ccccc21	95
O/N=C/c1c(O)ccc2ccccc12	88
C[N+](C)(C)CCCCCC[N+](C)(C)C	92&95
CSc1nc2ccc(NC(=O)c3ccc4ncsc4c3)cc2s1	91
CCc1ccc(N(C2C=CS(=O)(=O)C2)S(=O)(=O)c2ccccc2)cc1 (stereo not drawn)	95
The listing continues.
SMILES	RVFV N-RNA inh
COc1cccc(OCCCSC(C)C)c1	96
O=C(O)C1C2C=CC(O2)C1C(=O)N1CCN(c2ccccc2)CC1 (stereo not drawn)	101
Cc1cccc(C)c1-n1nnnc1S(=O)(=O)Cc1ccccc1Cl	102
O=C(Nc1cccc(C(F)(F)F)c1)c1cc(-c2ccccc2)on1	92
O=C(NCC1COc2ccccc2O1)c1ccc(NC(=O)c2ccc(Br)o2)cc1 (stereo not drawn)	93
COC(=O)c1ccc(NC(=O)CNC(=O)C2CCCCC2)c(C)c1	100
COC(=O)c1ccccc1-n1cnc2ccccc2c1=O	95
CN1C(=O)Cc2ccccc2C1=O	89
O=C(c1ccc(S(=O)(=O)N2CCCCC2)cc1)N1CCN(c2ccccc2F)CC1	99
CCOC(=O)C1CCCN(C(=O)CCS(=O)(=O)Cc2ccccc2)C1 (stereo not drawn)	90
N#C/C(=C/c1ccccc1)C(=O)Nc1ccc(O)cc1	90
O=C(Nc1ccc(N2CCN(Cc3ccccc3)CC2)cc1)c1ccccc1F	92
COC(=O)c1c(-c2c(Cl)cccc2Cl)noc1NC(=O)NN1CCOCC1	94
CC1CCCCC1NS(=O)(=O)c1cccc2nsnc12 (stereo not drawn)	99
CCC(=O)O[C@H](CC(=O)O)C[N+](C)(C)C	99
CN(C(=O)c1cccc(S(=O)(=O)N2CCCCC2)c1)c1ccccc1	99
CC1CC(=O)CCN1C(=O)c1ccccc1 (stereo not drawn)	97
COc1ccc(S(=O)(=O)N2CCN(C(=O)c3ccco3)CC2)cc1OC	102
NNC(=S)Nc1ccc2c(c1)OCO2	96
Cc1ccc(C2C(C#N)=C(SCC(=O)N3CCN(Cc4ccccc4)CC3)NC3=C2C(=O)CCC3)cc1 (stereo not drawn)	93
Cc1cc(N/C=C(\C#N)S(=O)(=O)c2ccc(Cl)cc2)nc(C)n1	107
O=C(OCc1ccco1)c1sc2ccccc2c1Cl	107
O=C(NNc1ccc(OC(F)(F)F)cc1)C1CCCCC1	101
Cc1cc(C)c(C)c(OCCCSC#N)c1	91

Only part of the results is shown. The share of hits here may be higher or lower than overall.
